Source: PubChem BioAssay (several laboratories)
RanGTP-Impb inh: inhibitors of RanGTP-importin-beta interaction, primary screen, biochemical, FRET, CFP-Ran, YFP-importin-beta, homogeneous. AID 2216, 2009. inhibition, % (test concentration not listed). Ran GTPase (GTP-bound) - importin-beta complex. cell-free CFP-Ran/YFP-importin-beta FRET ratio. 1.1% of 300,000 active;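 active = most replicates above 15%; inconclusive = exactly half above 15%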;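 also: 0% = DMSO wells and 100% = Ran loaded with GDP instead of GTP; wells of about 40 µL received 100 nL stock; the first replicate is given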
Vif A3G: inhibitors of Vif binding to APOBEC3G peptide, primary screen, biochemical, TR-FRET, GST-Vif 1-94, biotin-A3G peptide, dose response retest (AID 1117319); Virion infectivity factor (Human immunodeficiency virus type 1 group M subtype B (isolate …; TR-FRET GST-Vif / biotin-A3G peptide binding; higher % means a stronger effect; test concentration not given here; strong numbers were not always called active; one-dose inhibition, %; IC50 in µM for titrated hits; 0.57% of 260,000 active;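 active = above the screen mean plus three standard deviations and confirmed in dose response; inconclusive = results disagree or hit not tested in dose response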;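 also: Vif residues 1-94 fused to GST binding biotinylated APOBEC3G peptide 110-148; 0% = full assay without inhibitor and 100% = GST in place of GST-Vif; retest series ran down from 100 µM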
FGF22 binding: binders of human FGF22 protein, primary screen, FGF22 synaptogenesis inhibitor project, biophysical, thermal shift, single point | Fibroblast growth factor 22 (Homo sapiens), Q9HCT0 | 1.5% of 340,000 active | calls only at 9.99 µM | recombinant FGF22 thermal shift, SYPRO orange fluorescence; percent of sucrose octasulfate shift, DMSO zero;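 active = melting point raised past a set limit in the mean and every replicate; inconclusive = no clear call; three in four hits are not shown here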
Target sequence (Q9HCT0 whole entry, looked up): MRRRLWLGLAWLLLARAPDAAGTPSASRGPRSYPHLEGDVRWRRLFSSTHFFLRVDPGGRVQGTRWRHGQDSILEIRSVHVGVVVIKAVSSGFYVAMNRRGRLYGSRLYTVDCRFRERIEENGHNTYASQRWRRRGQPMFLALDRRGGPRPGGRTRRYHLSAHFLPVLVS
HNF4A DNA FP: change in binding of human HNF4A to DNA, primary screen, biochemical, fluorescence polarization, FITC-DNA. Hepatocyte nuclear factor 4-alpha (Homo sapiens), P41235. activity change, % at 10 µM. 0.3% of 360,000 active. 1 h; in the data active = activity change above about 30%, passing the limit was not always enough;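 also: controls were the assay level and a saturating level of protein; the project sought stronger binding though the title names inhibitors; some compounds called inactive have numbers as strong as hits; positive values seem to mean higher polarization but the record does not say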
Target sequence (P41235 whole entry, looked up): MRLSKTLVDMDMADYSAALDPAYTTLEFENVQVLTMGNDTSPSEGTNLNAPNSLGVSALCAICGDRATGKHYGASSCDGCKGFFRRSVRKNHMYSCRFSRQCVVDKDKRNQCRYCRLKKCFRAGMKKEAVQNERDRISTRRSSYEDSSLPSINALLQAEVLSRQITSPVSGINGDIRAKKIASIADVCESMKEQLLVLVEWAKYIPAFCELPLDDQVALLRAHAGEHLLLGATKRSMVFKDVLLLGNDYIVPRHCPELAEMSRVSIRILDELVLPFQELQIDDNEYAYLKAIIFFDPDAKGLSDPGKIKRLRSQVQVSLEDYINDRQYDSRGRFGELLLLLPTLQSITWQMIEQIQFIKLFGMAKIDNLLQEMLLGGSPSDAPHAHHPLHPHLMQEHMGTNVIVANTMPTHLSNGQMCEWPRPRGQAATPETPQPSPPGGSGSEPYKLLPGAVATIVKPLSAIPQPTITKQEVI
AF4-AF9 inh: inhibitors of AF4 peptide binding to AF9, primary screen, biochemical, AlphaScreen, biotin-AF4 peptide, FLAG-AF9, single point | Protein AF-9 (Homo sapiens), P42568 | inhibition, % at 10 µM | 0.47% of 350,000 active;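 active = every replicate reaching a set inhibition limit, whatever the replicate mean, cut at about 25% in these data; inconclusive = mean inhibition reaches that limit but some replicates miss it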;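 also: 0% = plate neutral control median and 100% = total signal loss; the record names both 10 and 1 µM as test concentration; the first replicate is given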
UCH37 DUB inh: inhibitors of human UCH37 deubiquitinase, primary screen, biochemical, Ub-AMC cleavage, fluorescence; Ubiquitin carboxyl-terminal hydrolase isozyme L5 (Homo sapiens), Q9Y5K5; purified proteasome/UCH37; inhibition, % (test concentration not listed); 0.33% of 330,000 active; AID 588478, 2011;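 active = mean of two replicates above 20%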;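 also: 0% = compound-free wells with enzyme and 100% = wells lacking proteasome; stock transfer was 100 nL into about 20 µL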
Target sequence (Q9Y5K5 whole entry, looked up): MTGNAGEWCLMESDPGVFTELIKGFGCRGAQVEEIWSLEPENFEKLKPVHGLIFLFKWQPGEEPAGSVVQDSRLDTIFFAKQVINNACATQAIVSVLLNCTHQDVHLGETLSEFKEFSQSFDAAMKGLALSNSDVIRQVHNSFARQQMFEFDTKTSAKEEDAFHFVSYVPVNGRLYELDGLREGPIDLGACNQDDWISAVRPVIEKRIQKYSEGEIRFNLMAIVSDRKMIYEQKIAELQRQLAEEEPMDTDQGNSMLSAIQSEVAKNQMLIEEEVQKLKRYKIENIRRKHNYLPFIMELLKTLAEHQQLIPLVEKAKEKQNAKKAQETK
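Material: human UCH37 enzyme supplied as purified proteasome complex. Measure: % inhibition of Ub-AMC cleavage fluorescence. Medium: pH 7.4 Tris-HCl (50 mM) with ovalbumin, ATP-MgCl2, DTT. Times: 30 min preincubation with enzyme, 25 min cleavage at room temperature. Detection: AMC fluorescence intensity at 355/460 nm.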
E coli growth: E. coli growth inhibition, primary screen, OD600 | Escherichia coli growth, 23 h; hits give low values | OD600 absorbance (concentration not given with the values) | 0.21% of 330,000 active | AID 1053175, 2014;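 active = OD600 absorbance below the run mean of sample wells minus 3.6 SD, in any replicate, cut at about 0.56 in these data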;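 also: stock transfer was 300 nL into about 60 µL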
* = called active by the depositor; i = inactive; ? = inconclusive; . = not tested or not shown; + = active, no number; & = joins results of further samples.

SMILES	RanGTP-Impb inh	Vif A3G	FGF22 binding	HNF4A DNA FP	AF4-AF9 inh	UCH37 DUB inh	E coli growth
O=[N+]([O-])c1cc(Br)cc(C=Nc2ccc3c(c2)OCO3)c1O	10	2%	i	1.0	4.7	7.8	0.65
O=C(CSc1nc2scc(-c3ccco3)c2c(=O)n1-c1ccccc1)NCC1CCCO1 (centres undefined)	0.0	?	.	-45	.	-2.2	0.75
COc1cccc(C(=O)Nc2ccccc2)c1	3.4	-3%	.	0.0	.	0.8	0.63
CN(C(=O)Cn1nc(C(=O)O)c2ccccc2c1=O)c1ccccc1	-0.4	-1%	i	-0.9	-2.0	1.0	0.67
COc1cc(CNCCNC(=O)c2nonc2N)ccc1OCc1ccc(Cl)cc1	1.9	0%	i	-1.7	12	3.6	0.7
Cc1nc2nc(SCC(=O)NCCCN3CCCC(C)C3)nn2c(C)c1Cc1ccccc1Cl (centres undefined)	2.8	.	i	5.1	0.7	6.3	0.71
O=C(Nc1ccc(S(=O)(=O)N2CCCCCC2)cc1)c1c(F)cccc1F	3.2	8%	i	1.7	-13	2.0	0.69
O=C(NC(=S)NCCc1ccccn1)c1ccccc1	3.8	0%	i	-0.9	-2.1	5.0	0.68
O=C1C=C(c2ccc(F)cc2OCc2ccccc2)C[C@@H](c2ccc(F)cc2)C1	.	.	i	-11	-16	3.3	.
CCOC(=O)c1c(N)sc(C(=O)N(C)C)c1C	-2.0	2%	.	4.2	.	0.6	0.73
O=C1CC(=C(c2ccccc2)c2ccccc2)C(=O)N1CCCCN1CCN(c2ccccc2)CC1	8.1	2%	.	1.8	.	-1.1	0.71
CCN(CC(=O)Nc1ccccc1C(F)(F)F)C(=O)c1oc2c(Cl)cccc2c1C	3.9	.	i	0.1	-10	.	.
COc1ccc(OC)c(NC(=O)c2cccc(C)c2[N+](=O)[O-])c1	-2.7	17%	i	0.5	5.2	4.0	0.66
CCc1nnc(NC(=O)CSc2nnc(Cc3ccccc3)n2Cc2ccccc2)s1	-2.9	-3%	.	-0.3	.	5.0	0.73
CC(=O)c1ccc(N2CCN(CC(O)COCc3ccco3)CC2)cc1 (centres undefined)	3.1	2%	i	-0.3	0.6	4.8	0.66
Fc1ccc(-c2ccc3c(c2)C2CC3CCN2Cc2ccc3c(c2)OCO3)cc1 (centres undefined)	.	.	i	2.2	2.7	.	.
O=C(c1cccc(S(=O)(=O)N2CCCCC2)c1)N(CCc1ccccc1)Cc1ccccc1	-0.8	0%	i	0.4	-5.9	1.7	0.67
N=C1C(c2ccccc2)=C(O)CN1c1cccc(S(=O)(=O)Nc2cccc(C(F)(F)F)c2)c1	3.9	-9%	.	0.9	.	2.1	0.64
Nc1ncnc2nc(SCC(=O)N3CCN(c4ccccc4)CC3)[nH]c12	-1.2	2%	.	-1.8	.	-7.3	0.64
Cn1cccc1C(=O)OCc1ccc(F)cc1	-3.6	-3%	i	0.9	1.4	-0.2	0.63
O=C(COC(=O)c1cc(S(=O)(=O)N2CCCC2)ccc1O)NCCc1ccccc1	.	27%	i	1.4	3.6	-21	0.69
COc1ccc(S(=O)(=O)N(CC(=O)NC2CC2)Cc2ccccc2)cc1	3.1	.	i	5.7	-1.6	1.3	0.69
O=C(C[C@H]1CC[C@@H](NC(=O)c2ccncc2)[C@@H](CO)O1)NCC1CC1	.	.	i	-2.0	-4.6&2.0	.	.
O=C(CCc1ccccc1)Nc1ccc(NS(=O)(=O)c2ccccc2)cc1	-1.5	1%	i	1.9	1.8	1.5	0.7
Cc1cc(=O)[nH]c(N2CCc3ccccc3C2)n1	6.7	-1%	.	1.1	.	1.1	0.67
CCN(C(=O)Cn1c(=O)n(-c2cc(OC)c(OC)c(OC)c2)c(=O)c2ccccc21)c1cccc(C)c1	-0.5	1%	i	1.2	6.3	-1.5	0.73
CCOC(=O)CC(=O)NC(CC(=O)OC)c1ccc(Br)cc1 (centres undefined)	0.7	-12%	i	-0.5	-0.8	-0.6	0.71
O=C1C(=O)c2ccccc2C(O)=C1CC=C(Cl)Cl	.	-10%	i	-0.2	4.1	.	.
COc1ccc(C2CC(=O)C=C(NCc3ccccc3)C2)cc1 (centres undefined)	0.7	-4%	i	0.4	1.5	-0.3	0.69
CC(C)CC(=O)Nc1ccnn1C1CCN(C(=O)c2ccccc2F)CC1	2.7	-3%	i	1.5	2.5	-1.1	0.69
Cc1cc2oc3ccc(NCCCN4CCOCC4)cc3c(=O)c2cc1C	-26	.	i	-0.6	-4.1	2.3	0.67
C[C@@H](C(=O)O)[C@@H]1C[C@@]1(C)[C@@H](NC(=O)OCc1ccccc1)c1ccccc1	-3.0	.	i	0.6	-0.8	0.8	.
CCCS(=O)(=O)N1CCCC(C(=O)N2CCC(Cc3ccccc3)CC2)C1 (centres undefined)	2.0	-6%	.	-3.3	.	2.2	0.68
COc1ccccc1N1CC(C)C(=O)NC1=S (centres undefined)	6.2	3%	i	-1.4	-2.3	.	.
COC(=O)CN(Cc1ccco1)S(=O)(=O)c1ccccc1	-1.4	11%	.	-0.6	.	1.6	0.68
CCCCn1cnc2c(SCc3ccccc3Cl)nc(N)nc21	.	-6%	i	-1.1	-0.7	-1.5	0.69

Overlap with the part before: 4 compounds; new compounds follow.
SMILES	RanGTP-Impb inh	Vif A3G	FGF22 binding	HNF4A DNA FP	AF4-AF9 inh	UCH37 DUB inh	E coli growth
CCCS(=O)(=O)N1CCCC(C(=O)N2CCC(Cc3ccccc3)CC2)C1 (centres undefined)	2.0	-6%	.	-3.3	.	2.2	0.68
COc1ccccc1N1CC(C)C(=O)NC1=S (centres undefined)	6.2	3%	i	-1.4	-2.3	.	.
COC(=O)CN(Cc1ccco1)S(=O)(=O)c1ccccc1	-1.4	11%	.	-0.6	.	1.6	0.68
CCCCn1cnc2c(SCc3ccccc3Cl)nc(N)nc21	.	-6%	i	-1.1	-0.7	-1.5	0.69
CC(C)=CCCC1=CCC(/C=N/NC(N)=O)C(C)C1 (centres undefined)	4.4	-6%	i	-3.8	-3.0	.	.
CN1CCN(c2nc(-c3cccnc3)nc3scc(-c4ccccc4)c23)CC1	2.0	-9%	i	1.7	2.3	-5.1	0.65
CC1(C(=O)NCCc2c[nH]c3ccccc23)CCN1Cc1ccccc1OC(F)F (centres undefined)	.	.	i	0.1	6.8	.	.
CCCN1CCC(N2CCN(c3cccc(C(F)(F)F)c3)CC2)CC1	-1.3	6%	.	-0.1	.	5.8	0.69
COc1cc(C)c(C)cc1S(=O)(=O)N1CCN(Cc2ccccc2)CC1	3.4	7%	.	2.7	.	3.7	0.71
O=C(Nc1cc(F)ccc1F)c1ccc(-n2cncn2)c([N+](=O)[O-])c1	9.9	16%	i	2.3	0.4	3.1	0.67
COc1cccc(N2CC(NS(=O)(=O)c3ccc4ccccc4c3)CC2=O)c1 (centres undefined)	4.5	2%	i	-0.8	-1.9	2.2	0.69
CSc1nc(Cl)c(Cc2ccc(OC(C)C)cc2)c(N2CCOCC2)n1	-0.8	18%	.	-1.4	.	3.3	0.72
O=C1c2ccccc2C(=O)N1C/C=C/CN1C(=O)c2ccccc2C1=O	-3.7	3%	.	.	.	0.4	0.75
Cc1ccc(S(=O)(=O)NC(=NC(C)C)c2ccccc2)cc1	2.7	-10%	i	1.4	-1.6	5.0	0.68
COC(=O)C1=C(C)NC(C)=C(C(=O)OCC2CCCO2)C1c1cccc(Br)c1 (centres undefined)	5.0	.	i	-0.7	-2.6	-36	0.7
O=C(O)Cn1c(COc2ccc(Cl)cc2)nc2ccccc21	3.2	-4%	i	-1.1	-3.4	0.0	0.71
Cc1ccc(N2CCN(C(=O)N3CCCC3)CC2)cc1Cl	3.4	0%	.	0.1	.	4.7	0.72
COc1cc(NC(=O)COC(=O)[C@@H]2CCCN2S(=O)(=O)c2ccc(Cl)cc2)cc(OC)c1OC	4.7	-2%&5%	.	-4.6	.	1.5	0.77
N#C/C(=C(/O)CN1C(=O)c2ccccc2C1=O)c1nc2ccccc2[nH]1	5.2	4%	.	-0.8	.	.	.
COc1ccc([C@H]2CC(=O)C=C(c3cc(C=O)ccc3OC)C2)cc1	.	.	i	-0.1	2.9	2.3	0.72
c1ccc(CCn2nnnc2C(c2cccs2)N2CCOCC2)cc1 (centres undefined)	7.6	-8%	.	-5.2	.	0.6	0.67
CN(Cc1cnccn1)Cc1nc(Cc2ccccc2F)no1	?	12%	i	-3.7	-1.9	2.3	0.7
O=C(O)CN1C(=O)NC2(CCc3ccccc32)C1=O (centres undefined)	0.4	-7%	i	0.1	-2.8	0.0	0.68
CN(NS(=O)(=O)c1ccc([N+](=O)[O-])cc1)c1ccccc1	.	-7%	i	2.6	0.2	.	.
O=C(c1ccco1)N1CCN(C(c2coc3ccc(Cl)cc3c2=O)c2nnnn2C2CCCC2)CC1 (centres undefined)	?	7%	.	1.9	.	3.6	0.7
Cc1ccc(C2(C)NC(=O)N(CC(=O)c3ccc(Cl)s3)C2=O)cc1 (centres undefined)	1.6	.	.	6.7	.	3.1	0.71
C=C1CC(COc2cc(=O)oc3ccccc23)(c2ccccc2)OC1=O (centres undefined)	.	.	i	-0.3	0.0	.	.
COc1ccc(C2=NN(C(=O)c3cccnc3)C(c3ccccc3)C2)cc1 (centres undefined)	-2.0	0%	i	-1.9	0.7	1.8	0.7
COc1ccc(NS(=O)(=O)c2cc(C(=O)N3CCN(C/C=C/c4ccccc4)CC3)ccc2C)cc1	-2.0	.	i	3.9	4.9	.	.
N#Cc1ccc(OCC(=O)Nc2ccncc2)cc1	2.0	-12%	i	-3.3	-0.3	5.9	0.68
S=c1[nH]nc(-c2ccc(Cl)cc2)n1/N=C/C=C/c1ccco1	?	?	.	-4.0	0.2	.	.
O=c1ccc2cc(S(=O)(=O)Nc3ccc(F)cc3)ccc2o1	3.4	8%	.	-1.0	.	0.7	0.79
NC(=O)c1ccsc1NC(=O)COC(=O)Cc1c[nH]c2ccccc12	-0.9	11%	+	5.4	3.1	1.7	0.68
Cc1ccc(-c2nnn(CCC(=O)NC3CCCC3)n2)cc1	?	4%	.	-3.9	.	2.3	0.69
CC(=O)CC(C)(C)n1nnc(-c2ccccc2)n1	3.9	-2%	.	-0.2	.	2.4	0.69
COc1ccc(CCNC(=O)Cn2c(=O)n(-c3ccc(F)cc3F)c(=O)c3sccc32)cc1OC	4.0	6%	i	-0.6	-7.2	3.0	0.68
OCC[C@@H]1C[C@H](O)[C@@H](O)[C@]2(CCc3ccccc3CO2)O1	?	.	i	0.6	.	.	.
CN(C)NC(=O)c1ccsc1NC(=O)c1ccc(S(=O)(=O)N2CCCC2)cc1	-2.0	-1%	i	1.6	1.5	5.0	0.67
O=C(CSc1nc(-c2cccs2)cc(C(F)(F)F)n1)NCc1ccco1	0.5	-3%	.	-1.6	.	0.8	0.72
COc1ccc(N(CC(=O)N2CCC(C)CC2)S(=O)(=O)c2c(C)nn(C)c2C)cc1	1.3	-1%	i	0.6	-10	2.4	0.79
Cc1ccc(N(CC(=O)NCc2ccccc2)C(=O)CCC(=O)Nc2ccccn2)c(C)c1	-3.6	-18%	.	0.8	3.1	3.6	0.7

Only part of the results is shown; the hit share may differ from the screen's.
